PD-1 reverse act: reversal of PD-1 mediated T-cell inhibition | activation, % (test concentration not listed) | primary human CD4 T cells, PD-L1 beads, CellTiter-Glo 96 h | AID 2316 | 29,000 tested, under 10 active;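 active means replicate mean of 50% or more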;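 further: 0% = median vehicle wells and 100% = positive control; 100 nL library stock added to about 50 µL; numbers are from one replicate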
MITF inhib: MITF inhibition. TRPM1 promoter luciferase, luminescence, 24 h. inhibition, % (no concentration beside the values). 0.28% of 37,000 active;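 active means most replicates at 85% or more, or half of them and the mean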;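 further: human melanocyte line stably carrying TRPM1 promoter luciferase reporter; 0% = vehicle wells and 100% = a positive control; the first replicate is given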
YB-1 expr inh: YB-1 expression inhibition; 0.37% of 30,000 active; delta delta Cp (YB-1 minus CDIP) (test concentration not listed); U2OS, qRT-PCR YB-1 vs CDIP delta delta Cp, 16 h; hits give high values; zero = DMSO, each unit about twofold; AID 434959;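 active means delta delta Cp rounded down to an integer at or above 3, about 3 SD of DMSO wells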;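 further: higher means less YB-1 transcript or more CDIP transcript relative to DMSO; stock transfer was 100 nL into about 100 µL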
Hedgehog inh: Sonic Hedgehog pathway inhibition; Shh-LIGHT2 Gli-luciferase reporter, 30 h; inhibition, % (test concentration not listed); 2.1% of 22,000 active;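 active means replicate mean of 65% or more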;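 further: pathway switched on by Shh-conditioned medium diluted 1 in 25 in low serum; 100 nL library stock added to about 40 µL; 0% = median of neutral wells and 100% = positive control level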
An asterisk follows results filed as active; . = not tested or not shown. Only part of the results is shown (hit frequency here may not be typical).

Start of the data: the first 2 entries (preview)
SMILES	PD-1 reverse act	MITF inhib	YB-1 expr inh	Hedgehog inh
CNC[C@@H]1OCCCC[C@@H](C)Oc2ccc(NS(=O)(=O)c3cn(C)cn3)cc2C(=O)N([C@H](C)CO)C[C@@H]1C	2.0	6	-0.32	-37
C[C@@H]1CN([C@H](C)CO)C(=O)c2cc(NC(=O)Nc3cccc4ccccc34)ccc2O[C@@H]1CN(C)Cc1ccncc1	0.9	3	0.019	.

Results (from the top)
SMILES	PD-1 reverse act	MITF inhib	YB-1 expr inh	Hedgehog inh
CNC[C@@H]1OCCCC[C@@H](C)Oc2ccc(NS(=O)(=O)c3cn(C)cn3)cc2C(=O)N([C@H](C)CO)C[C@@H]1C	2.0	6	-0.32	-37
C[C@@H]1CN([C@H](C)CO)C(=O)c2cc(NC(=O)Nc3cccc4ccccc34)ccc2O[C@@H]1CN(C)Cc1ccncc1	0.9	3	0.019	.
Cc1cc(S(=O)(=O)NCC(=O)O)ccc1F	2.6	-19	.	.
Cc1noc(C)c1NC(=O)Nc1cccc2c1O[C@H](CN(C)S(=O)(=O)c1ccc(Cl)cc1)[C@@H](C)CN([C@H](C)CO)C2=O	1.5	-7	0.51	-14
COc1ccc(S(=O)(=O)N(C)C[C@H]2Oc3c(NC(=O)NC4CCCCC4)cccc3C(=O)N([C@H](C)CO)C[C@H]2C)cc1	-1.6	4	-0.28	-17
Cn1c(SCc2nc3ccccc3s2)nnc1-c1ccncc1	-0.8	1	.	.
C[C@@H]1CN([C@@H](C)CO)C(=O)Cc2cc(NS(C)(=O)=O)ccc2O[C@@H]1CN(C)Cc1ccc2c(c1)OCO2	0.2	5	-0.7	19
C[C@@H]1O[C@@H](O[C@H]2[C@H](O[C@H]3CC[C@@]4(C)C(CC[C@]5(C)C4CC=C4C6CC(C)(C)CC[C@]6(C(=O)O)CC[C@]45C)[C@]3(C)CO)OC[C@H](O)[C@@H]2O)[C@H](O)[C@H](O)[C@H]1O (stereo partly specified)	-8.7	26	-1.2	74*
C[C@@H]1CN([C@H](C)CO)C(=O)c2cccc(NS(C)(=O)=O)c2O[C@H]1CN(C)C(=O)Nc1ccc2c(c1)OCO2	3.0	-13	-0.12	-1
C[C@H](CO)N1C[C@H](C)[C@@H](CN(C)S(=O)(=O)c2ccccc2)Oc2c(NC(=O)c3nc4ccccc4s3)cccc2C1=O	0.1	-1	-0.035	-16
O=C(NCc1cccnc1)c1cnn2c(C(F)F)cc(C3CC3)nc12	-3.1	-25	.	.
Cc1noc(C)c1S(=O)(=O)Nc1ccc2c(c1)CC(=O)N([C@H](C)CO)C[C@@H](C)[C@@H](CN(C)S(=O)(=O)c1c(C)noc1C)O2	.	17	-0.17	-21
COc1ccc(NC(=O)Nc2ccc3c(c2)CC(=O)N([C@@H](C)CO)C[C@@H](C)[C@@H](CN(C)Cc2ccc(Cl)c(Cl)c2)O3)cc1	-0.4	16	0.19	39
CCOc1c(OC)cc(Cl)cc1C1NC(=O)NC(C)=C1C(=O)Nc1ccccc1C(=O)OC (stereo unspecified)	-1.1	-18	.	.
O=C(Nc1ccccc1C(=O)O)c1ncn[nH]1	2.0	-3	.	.
C[C@@H]1CCCCO[C@H](CN(C)C(=O)c2ccccc2)[C@@H](C)CN([C@H](C)CO)C(=O)c2cc(NC(=O)NC3CCCCC3)ccc2O1	1.9	-10	0.058	32
C[C@H]1CN([C@@H](C)CO)C(=O)c2cc(NS(=O)(=O)c3ccccc3)ccc2O[C@@H]1CN(C)Cc1ccccc1	.	-15	0.7	.
C[C@@H]1CN([C@@H](C)CO)C(=O)c2cccc(NC(=O)C3CC3)c2O[C@H]1CN(C)C(=O)NC1CCCCC1	2.7	-13	-0.24	-7
C[C@H](CO)N1C[C@H](C)[C@@H](CN(C)Cc2ccc(C(=O)Nc3ccccc3N)cc2)Oc2c(NC(=O)C3CCOCC3)cccc2C1=O	1.3	0	0.078	.
CS(=O)(=O)N1CCN(c2ccccc2NC(=O)c2ccc(N3CCCCC3)c([N+](=O)[O-])c2)CC1	-0.7	-23	.	.
Cc1ccc(S(=O)(=O)Nc2ccc3c(c2)C(=O)N([C@@H](C)CO)C[C@@H](C)[C@H](CN(C)S(=O)(=O)c2cccs2)O3)cc1	-1.8	-9	0.11	.
C[C@H](CO)N1C[C@H](C)[C@@H](CN(C)Cc2ccc3c(c2)OCO3)Oc2ccc(NS(=O)(=O)c3cccs3)cc2C1=O	-0.5	-3	0.19	-13
COc1ccc(-c2coc3cc(O)cc(O)c3c2=O)cc1	.	14	0.23	-128
Cc1ccc(OCCCn2cncn2)c([N+](=O)[O-])c1	3.5	-26	.	.
COc1ccc(NC(=O)N(C)C[C@H]2Oc3c(NC(=O)NC(C)C)cccc3C(=O)N([C@@H](C)CO)C[C@@H]2C)cc1	0.5	5	0.14	45
CC1=CC(C)(C)N2C(=O)C(=O)c3cc(OC(=O)CN4C(=O)c5cccc6cccc(c56)C4=O)cc1c32	-13	-39	.	.
C[C@H]1CN([C@@H](C)CO)C(=O)c2cc(NC(=O)NC3CCCCC3)ccc2O[C@@H]1CN(C)S(=O)(=O)c1ccc(F)cc1	0.4	-4	0.18	-9
CC1OC(=O)CC2C(C(=O)O)=CC3(O)CC(C)(C)CC123 (stereo unspecified)	.	.	0.085	11
CCN(CC(=O)Nc1cccc(C)c1)S(=O)(=O)c1ccc(Br)cc1	0.8	3	.	.
C[C@H]1CN([C@@H](C)CO)C(=O)c2cc(NC(=O)c3ccncc3)ccc2O[C@H]1CN(C)C(=O)Nc1ccccc1	.	-8	-0.25	-1
C[C@@H]1CCCCO[C@H](CN(C)C(=O)Nc2ccccc2)[C@@H](C)CN([C@H](C)CO)C(=O)c2cc(NC(=O)C3CCCCC3)ccc2O1	-2.4	6	-0.31	42
Cc1ccccc1C1CC(=O)c2c(ccc3ccccc23)N1 (stereo unspecified)	-1.7	53	0.19	41
CC(=O)Nc1ccc(NC(=O)CSc2nc3sc(C)c(C)c3c(=O)n2C)cc1	0.8	14	.	.
COC(=O)c1cc(-c2ccccc2)sc1NC(=O)c1cnccn1	-0.1	1	.	.
COc1ccc(NC(=O)Nc2ccc3c(c2)C(=O)N([C@@H](C)CO)C[C@@H](C)[C@@H](CN(C)Cc2ccc4c(c2)OCO4)O3)cc1	.	11	-0.22	.
Cc1noc(C)c1S(=O)(=O)Nc1ccc2c(c1)C(=O)N([C@H](C)CO)C[C@@H](C)[C@@H](CN(C)Cc1ccc(Cl)c(Cl)c1)O2	-0.5	-1	-0.044	.
C/C=C1/C(=O)O[C@]2(C)C[C@@H]3OC(=O)C(COC)[C@]34O[C@@]12CC[C@@](C)(O)CC4=O (stereo partly specified)	.	.	0.94	39
COc1cc2c(cc1O)C1(O)Cc3ccc4c(c3C1N(C)CC2)OCO4 (stereo unspecified)	.	.	1.1	0
CC1(C)S[C@@H]2[C@H](NC(=O)COc3ccccc3)C(=O)N2[C@H]1C(=O)O	.	2	-0.25	-40
COc1ccc(NC(C)=S)cc1C	0.6	0	-0.054	.
COc1ccc(S(=O)(=O)Nc2ccc3c(c2)C(=O)N([C@H](C)CO)C[C@H](C)[C@@H](CN(C)Cc2ccc(Oc4ccccc4)cc2)O3)cc1	-0.4	6	14*	37
C[C@@H]1CN([C@@H](C)CO)C(=O)Cc2cc(NC(=O)NC3CCCCC3)ccc2O[C@@H]1CN(C)C(=O)Nc1cccc2ccccc12	-2.9	-6	-0.78	8
CC(Sc1cccc2cccc(C(=O)O)c12)C(=O)O (stereo unspecified)	1.5	-8	.	.
Cc1ccc(S(=O)(=O)Nc2ccc3c(c2)C(=O)N([C@@H](C)CO)C[C@H](C)[C@@H](CN(C)CC2CCCCC2)O3)cc1	0.6	-2	0.019	-2
Cc1noc(C)c1S(=O)(=O)Nc1ccc2c(c1)CC(=O)N([C@@H](C)CO)C[C@@H](C)[C@@H](CN(C)S(=O)(=O)c1ccc(F)cc1)O2	.	-9	0.36	-4
CC(C)NC(=O)Nc1ccc2c(c1)C(=O)N([C@H](C)CO)C[C@H](C)[C@@H](CN(C)C(=O)NC(C)C)OCCCC[C@@H](C)O2	2.7	-15	-0.3	-6
Cc1ccc([N+](=O)[O-])c(OCCCN2C(=O)NC(C)(C)C2=O)c1	0.4	-24	.	.
CNc1nc(SC(C)C(=O)OC)nc(N2CCOCC2)n1 (stereo unspecified)	-0.1	-24	.	.
C[C@H](CO)N1C[C@H](C)[C@H](CN(C)C(=O)Nc2ccc3c(c2)OCO3)Oc2c(NC(=O)NC3CCCCC3)cccc2C1=O	1.3	-7	0.25	-6
C[C@H]1CN([C@@H](C)CO)C(=O)c2cc(NC(=O)Cn3cnnn3)ccc2O[C@H]1CN(C)Cc1ccc(C(=O)O)cc1	0.6	-3	0.0029	-40
COc1ccc(OC)c(S(=O)(=O)ON2C(=O)c3ccccc3C2=O)c1	-15	36	.	.
C[C@H]1CN([C@@H](C)CO)C(=O)c2cc(NC(=O)NC3CCCCC3)ccc2O[C@H]1CN(C)Cc1ccncc1	1.0	-13	0.16	.
C[C@H](CO)N1C[C@H](C)[C@@H](CN(C)C(=O)Nc2ccccc2)Oc2c(NS(=O)(=O)c3ccc(Cl)cc3)cccc2C1=O	-3.1	-13	-0.13	-114
OCC1OC(Oc2cc(O)cc(/C=C/c3ccccc3)c2)C(O)C(O)C1O (stereo unspecified)	.	.	0.16	-2
Cc1ccc(S(=O)(=O)N(C)C[C@@H]2Oc3ccc(NS(=O)(=O)c4cccs4)cc3C(=O)N([C@@H](C)CO)C[C@@H]2C)cc1	-1.0	7	-0.9	.
COc1ccc(S(=O)(=O)N(C)C[C@H]2Oc3ccc(NC(=O)Nc4c(C)noc4C)cc3CC(=O)N([C@@H](C)CO)C[C@@H]2C)cc1	2.3	-2	0.025	-18
CCOC(=O)c1cc(NC(=O)CSc2nc3ccccc3[nH]2)ccc1Cl	-1.9	-1	.	.
Cc1noc(C)c1NC(=O)Nc1ccc2c(c1)C(=O)N([C@@H](C)CO)C[C@H](C)[C@@H](CN(C)C(=O)Nc1ccc(F)cc1)O2	.	-1	-0.12	3
Cc1noc(C)c1NC(=O)Nc1cccc2c1O[C@H](CN(C)C(=O)Nc1ccc(F)cc1)[C@@H](C)CN([C@H](C)CO)C2=O	0.8	-10	-0.18	-26
C[C@H](CO)N1C[C@H](C)[C@H](CN(C)C(=O)Nc2ccccc2)Oc2ccc(NC(=O)C3CCCCC3)cc2CC1=O	0.6	-9	-0.054	-17
Continued:
SMILES	PD-1 reverse act	MITF inhib	YB-1 expr inh	Hedgehog inh
COc1ccc(NC(=O)Nc2ccc3c(c2)C(=O)N([C@@H](C)CO)C[C@H](C)[C@H](CN(C)S(=O)(=O)c2cn(C)cn2)O3)cc1	2.1	3	-0.22	-7
COc1ccc(S(=O)(=O)Nc2ccc3c(c2)C(=O)N([C@@H](C)CO)C[C@H](C)[C@@H](CN(C)C(=O)Nc2ccc(C(F)(F)F)cc2)O3)cc1	-0.5	-11	-0.11	39
C[C@@H]1CN([C@H](C)CO)C(=O)c2cccc(NS(=O)(=O)c3ccc(Cl)cc3)c2O[C@H]1CN(C)C(=O)Nc1ccc(C(F)(F)F)cc1	3.1	-9	0.19	7
O=C(CSc1nnnn1-c1ccccc1)Nc1cc(Cl)c(Cl)cc1Cl	4.0	13	.	.
C[C@H]1CN([C@@H](C)CO)C(=O)Cc2cc(NC(=O)NC3CCCCC3)ccc2O[C@@H]1CN(C)Cc1ccc2c(c1)OCO2	2.0	-8	0.099	-5
C[C@H]1CN([C@@H](C)CO)C(=O)c2cc(NC(=O)c3ccncc3)ccc2O[C@H]1CN(C)C(=O)Nc1cccc2ccccc12	0.0	-4	0.21	.
Cc1noc(C)c1S(=O)(=O)Nc1ccc2c(c1)CC(=O)N([C@@H](C)CO)C[C@@H](C)[C@@H](CN(C)Cc1ccc(C(=O)O)cc1)O2	.	-3	0.079	-54
COc1ccc(NC(=O)N(C)C[C@H]2Oc3ccc(NC(=O)C4CC4)cc3CC(=O)N([C@@H](C)CO)C[C@@H]2C)cc1	1.5	3	-0.25	-31
Cc1noc(C)c1S(=O)(=O)N(C)C[C@H]1Oc2ccc(NS(=O)(=O)c3ccc(F)cc3)cc2C(=O)N([C@H](C)CO)C[C@H]1C	.	2	-0.12	-33
C[C@H](CO)N1C[C@H](C)[C@H](CN(C)C(=O)Nc2ccc(C(F)(F)F)cc2)Oc2ccc(N(C)C)cc2CC1=O	1.3	-4	0.0088	-27
C[C@H](CO)N1C[C@H](C)[C@@H](CN(C)C(=O)Nc2ccccc2)Oc2ccc(NC(=O)NC3CCCCC3)cc2C1=O	0.3	-1	0.076	-9

Whole records, looked up by structure. Screens in order: PD-1 reverse act, MITF inhib, YB-1 expr inh, Hedgehog inh
`COc1ccc(S(=O)(=O)N(C)C[C@H]2Oc3c(NC(=O)NC4CCCCC4)cccc3C(=O)N([C@H](C)CO)C[C@H]2C)cc1` in the list: -1.6, 4, -0.28, -17
`CCOC(=O)c1cc(NC(=O)CSc2nc3ccccc3[nH]2)ccc1Cl` in the list: -1.9, -1, ., .
`Cc1noc(C)c1NC(=O)Nc1ccc2c(c1)C(=O)N([C@@H](C)CO)C[C@H](C)[C@@H](CN(C)C(=O)Nc1ccc(F)cc1)O2` in the list: ., -1, -0.12, 3
`C[C@H]1CN([C@@H](C)CO)C(=O)c2cc(NC(=O)c3ccncc3)ccc2O[C@H]1CN(C)C(=O)Nc1ccccc1` in the list: ., -8, -0.25, -1
`Cc1noc(C)c1S(=O)(=O)Nc1ccc2c(c1)CC(=O)N([C@@H](C)CO)C[C@@H](C)[C@@H](CN(C)Cc1ccc(C(=O)O)cc1)O2` in the list: ., -3, 0.079, -54

From PubChem BioAssay
